Bioassay records from PubChem BioAssay.
Mtb hypoxia inh: PubChem AID 1159583 | M. tuberculosis hypoxia-regulated fluorescent reporter, fluorescence | fluorescence inhibition, % (test concentration not listed) | 0.1% of 300,000 active;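 active means 35 to 45% if threefold the growth effect, above 45% if 1.5-fold the growth effect; inactive means the rest, general growth blockers included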;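 further: wells of about 50 µL received 100 nL stock; 0% = vehicle wells and 100% = reference inhibitor wells; whole bacteria with a GFP reporter of the hypoxia response; strong numbers were not always called active; many hits fall short of the cut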
Sa ugtP lethal: growth inhibition of ugtP-null S. aureus, primary screen, RN4220 ugtP deletion, OD600 | 16 h; some inactives read as strong as hits | 0.54% of 330,000 active | growth inhibition, % (test concentration not listed);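 active means z-score under -3 and OD600 up to 0.15 on both plates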;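 further: plate controls were untreated wells for no effect and antibiotic for full effect; wells of about 80 µL received 100 nL stock; the first replicate is given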
Bead autofluor: counter-screen for toxin protease inhibitors: compound fluorescence; AID 624483; 3.1% of 360,000 active; compound autofluorescence counterscreen, microsphere flow cytometry; active compounds read high; fluorescence intensity (concentration not given with the values);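 active means at least 3 SD above the mean of all compounds, about 16000 in these data; inconclusive means too few beads counted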;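 further: 100 nL of 1 mM stock went into each well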
BJeLR viability: MLPCN primary cell-based screen for lethality selective to Ras in HRASV12 cells. BJeLR (HRASV12) viability, CellTiter-Glo ATP luminescence, 48 h; reference of the scale not given here. inhibition, % (no concentration beside the values). 0.17% of 300,000 active;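 active means replicate mean above 50%; inconclusive means above 50% but judged a plate artefact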;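 further: 50 nL library stock added to about 25 µL; numbers are from one replicate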
Sa RN4220 lethal: growth inhibition of S. aureus RN4220, primary screen, OD600. 16 h. 0.33% of 330,000 active. inhibition, % (test concentration not listed). AID 1259311, 2017;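 active means z-score of -3 or lower and OD600 up to 0.18 on both plates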;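 further: plate controls were untreated cells for no effect and reference antibiotic for full effect; stock transfer was 100 nL into about 80 µL; one replicate is shown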
PrP UTR inh: inhibition of PrP 5' UTR reporter expression; AID 488862, 2010; 0.35% of 340,000 active; inhibition, % (no concentration beside the values); cell-based PrP 5' UTR mRNA reporter, plate reader;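 active means every replicate at 50% or more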;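 further: 0 = median of the neutral control wells; tested in H4 reporter cells; numbers are from one replicate; inactives centre near -14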
Mtb hypoxia inh growth: also measured in Mtb hypoxia inh; calls as there; growth inhibition, %; measured here: M. tuberculosis growth (absorbance);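 0% = vehicle and 100% = reference antibiotic; read after six days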
Active calls of the source: *; u = inconclusive; x = no result given. The order is random; overall some 4% were active at least once.

SMILES	Mtb hypoxia inh	Mtb hypoxia inh growth	Sa ugtP lethal	Bead autofluor	BJeLR viability	Sa RN4220 lethal	PrP UTR inh
CCOC(=O)N1CCC(N2C(=O)c3ccccc3C2Nc2cc(OC)c(OC)c(OC)c2)CC1 (stereo not given)	1	5	-6	6111	3	-7.2	-17
CCC(c1ccc(O)cc1)C(CC)c1ccc(O)cc1 (stereo not given)	-3	3	-12	5081	x	-23	-5
CN(Cc1cccc(F)c1)C(=O)c1ccc(NS(=O)(=O)c2ccc3[nH]c(=O)[nH]c3c2)cc1	2	-7	3	3849	5	3.3	-6
COc1ccc2cc(C(=O)C3CCCN(C(=O)c4cccnc4)C3)ccc2c1 (stereo not given)	12	6	4	4295	2	0.8	-19
Cc1nc(-c2ccc(Cl)cc2)sc1C1(C)CC(c2ccc(F)cc2)=NO1 (stereo not given)	1	-2	18	3962	1	12	-24
Cc1cccc(C(=O)N2CCN(c3ccc([N+](=O)[O-])c(NCc4ccco4)c3)CC2)c1	x	x	-2	2253	12	-7.1	16
COc1ccc(-c2ncc3ccccn23)cc1	x	x	5	4513	-4	4.2	-58
CN(C(=S)Nc1ccccc1F)C1(c2ccccc2Cl)CCCCC1=O (stereo not given)	15	9	2	20195*	-1	9.4	-25
O=C(COC(=O)c1cccs1)NCCCc1ccccc1	4	4	5	3948	-16	1.4	0
Cc1ccc(N2C(=O)NC(NS(=O)(=O)c3ccccc3)(C(F)(F)F)C2=O)cc1C (stereo not given)	5	7	10	6024	2	3.4	-12
COc1ccc(-c2nc(C#N)c(N3CCC(C(N)=O)CC3)o2)cc1	x	x	-7	2857	1	1.2	-6
Cc1cc(C)cc(OCc2nnc(SCC(=O)NC3CC3)n2C)c1	x	x	x	u	-2	x	0
CCOC(=O)c1cc(-c2ccccc2)sc1NC(=O)CN1C(=O)c2ccccc2C1=O	8	1	4	3517	-4	3.1	-15
Cc1cccc(NC(=S)Nc2ccc(Oc3ccccc3)cc2)n1	3	1	-20	2099	-16	5.7	-1
Cc1cc(OC(C)C(=O)NCCCn2ccnc2)c2c(C)c(C)c(=O)oc2c1 (stereo not given)	11	3	3	4930	2	-0.9	-21
O=C(c1ccc(Br)cc1)N1CCC(C(=O)N2CCN(c3ccccc3)CC2)CC1	-6	3	10	u	-5	-0.2	-26
Cc1noc(NS(=O)(=O)c2ccc(N/C=C\C(=O)c3ccccc3)cc2)c1C	x	x	x	5031	-9	x	-26
CC(=NNC(=O)c1ccc(NS(=O)(=O)c2cccs2)cc1)c1ccc2ccccc2c1	4	-1	-8	x	x	2.9	x
O=C(NCc1ccccc1Cl)C1CCCN1C(=O)Nc1ccccc1 (stereo not given)	3	9	5	3921	-4	-4.5	-1
OCCN(Cc1ccccc1)C(=S)Nc1ccc(F)cc1	6	7	10	4547	8	0.8	-3
Cc1c([N+](=O)[O-])c(C(=O)NC2CCCCC2)nn1C	1	-5	3	5478	-7	-1.6	-1
Cc1ccc(C(=O)NNC2=NCCC2)cc1	5	-3	3	12857	0	-0.9	-38
O=C(O)c1ccc(CSc2nnc(-c3ccccc3Cl)n2-c2ccccc2)cc1	10	0	4	4330	3	14	-24
FC(F)(F)c1cnc2c(c1)[nH]c(=S)n2-c1ccc(Cl)cc1	-1	3	10	3638	6	6.8	-9
Cc1n[nH]c(=O)n1-c1ccc(C(C)(C)C)cc1	8	5	-1	4118	-2	5.8	-14
Cc1cc(Cl)ccc1NC(=O)COC(=O)c1cc([N+](=O)[O-])ccc1N1CCOCC1	1	4	-5	49183*	9	-4.4	-10
CCN(C(=O)CSc1nnc(Cn2nnc3ccccc32)o1)c1nc(-c2ccccc2)cs1	x	x	-4	2364	1	-2.6	-15
CCOC(=O)C1C2COc3ccccc3C2N2C(=O)N(c3ccc(C(F)(F)F)cc3)C(=O)[C@@]12C (stereo not given in full)	-6	-17	-5	x	x	0.8	x
O=C(COC(=O)c1ccco1)Nc1cccc(S(=O)(=O)N2CCCCC2)c1	6	5	11	2963	x	6.8	-19
C(=NC1CCCCC1)c1c[nH]c2ccccc12	2	8	0	4182	x	3.7	-3
COc1ccc(NC(=O)CN(C)C(=O)c2ccccc2SCC(=O)N2CCCC2)cc1	-16	-14	2	u	-4	3.6	-6
O=C(CCCNS(=O)(=O)c1cccc2nsnc12)N1CCCCC1	-4	2	0	4308	-3	1.0	10
CC(C)C[C@H]1CNC(=O)C(=O)N1C[C@H](C)NC(=O)Cc1ccccc1	x	x	x	3099	-5	x	-26
Cc1ccc(S(=O)(=O)N2CCC(C(=O)N3CC(C)OC(C)C3)CC2)cc1 (stereo not given)	7	9	5	5281	-7	-0.1	-41
CCC(CC)c1nnc(NC(=O)C2COc3ccccc3O2)s1 (stereo not given)	8	15	12	11267	-6	5.4	x
COc1cc(N)ccc1Cc1ccc(N)cc1OC	x	x	6	3623	-10	2.9	-31
COc1ccccc1S(=O)Cc1ccc(C(=O)NCCc2ccc(Cl)cc2)o1 (stereo not given)	x	x	-3	5608	3	-0.5	-27
Fc1cccc(Cl)c1COc1ccc(-c2nnco2)cc1	4	-3	-6	4500	-5	-1.1	-17
COc1ccc(C2CC(c3ccccc3OC(C)=O)=NN2C(=O)/C=C/c2ccccc2)cc1 (stereo not given)	3	4	2	2504	1	1.0	-6
Cc1cccc(-n2nc3c(c2NC(=O)c2ccc(Br)o2)CSC3)c1C	-2	8	-4	11207	x	-0.1	x

Nothing new here: 17 of the compounds above.
SMILES	Mtb hypoxia inh	Mtb hypoxia inh growth	Sa ugtP lethal	Bead autofluor	BJeLR viability	Sa RN4220 lethal	PrP UTR inh
Cc1c([N+](=O)[O-])c(C(=O)NC2CCCCC2)nn1C	1	-5	3	5478	-7	-1.6	-1
Cc1ccc(C(=O)NNC2=NCCC2)cc1	5	-3	3	12857	0	-0.9	-38
O=C(O)c1ccc(CSc2nnc(-c3ccccc3Cl)n2-c2ccccc2)cc1	10	0	4	4330	3	14	-24
FC(F)(F)c1cnc2c(c1)[nH]c(=S)n2-c1ccc(Cl)cc1	-1	3	10	3638	6	6.8	-9
Cc1n[nH]c(=O)n1-c1ccc(C(C)(C)C)cc1	8	5	-1	4118	-2	5.8	-14
Cc1cc(Cl)ccc1NC(=O)COC(=O)c1cc([N+](=O)[O-])ccc1N1CCOCC1	1	4	-5	49183*	9	-4.4	-10
CCN(C(=O)CSc1nnc(Cn2nnc3ccccc32)o1)c1nc(-c2ccccc2)cs1	x	x	-4	2364	1	-2.6	-15
CCOC(=O)C1C2COc3ccccc3C2N2C(=O)N(c3ccc(C(F)(F)F)cc3)C(=O)[C@@]12C (stereo not given in full)	-6	-17	-5	x	x	0.8	x
O=C(COC(=O)c1ccco1)Nc1cccc(S(=O)(=O)N2CCCCC2)c1	6	5	11	2963	x	6.8	-19
C(=NC1CCCCC1)c1c[nH]c2ccccc12	2	8	0	4182	x	3.7	-3
COc1ccc(NC(=O)CN(C)C(=O)c2ccccc2SCC(=O)N2CCCC2)cc1	-16	-14	2	u	-4	3.6	-6
O=C(CCCNS(=O)(=O)c1cccc2nsnc12)N1CCCCC1	-4	2	0	4308	-3	1.0	10
CC(C)C[C@H]1CNC(=O)C(=O)N1C[C@H](C)NC(=O)Cc1ccccc1	x	x	x	3099	-5	x	-26
Cc1ccc(S(=O)(=O)N2CCC(C(=O)N3CC(C)OC(C)C3)CC2)cc1 (stereo not given)	7	9	5	5281	-7	-0.1	-41
CCC(CC)c1nnc(NC(=O)C2COc3ccccc3O2)s1 (stereo not given)	8	15	12	11267	-6	5.4	x
COc1cc(N)ccc1Cc1ccc(N)cc1OC	x	x	6	3623	-10	2.9	-31
COc1ccccc1S(=O)Cc1ccc(C(=O)NCCc2ccc(Cl)cc2)o1 (stereo not given)	x	x	-3	5608	3	-0.5	-27

Continued.
SMILES	Mtb hypoxia inh	Mtb hypoxia inh growth	Sa ugtP lethal	Bead autofluor	BJeLR viability	Sa RN4220 lethal	PrP UTR inh
Cc1noc(C)c1S(=O)(=O)Nc1cc(C(F)(F)F)ccc1N1CCOCC1	-8	-4	2	4399	-2	15	-32
Cc1cccc(C)c1N=C1C(=O)Nc2ccccc21	4	0	0	3761	3	4.3	-24
CCOC(=O)C1C(C(=O)Nc2cccc(C(F)(F)F)c2)C1C(=O)NC(C)C (stereo not given)	13	4	4	5265	-2	4.7	-16
Cc1nn(Cc2c(F)c(F)c(F)c(F)c2F)c(C)c1NC(=O)c1ccnn1C	-6	-3	-5	4712	-9	2.5	5
COc1ccc(OC)c(N/C(C)=C/C(=O)c2ccncc2)c1	12	9	-2	3472	1	2.6	-20
O=C(Nc1ccc(S(=O)(=O)N2CCOCC2)cc1)c1ccc(F)cc1	15	4	-6	4416	6	5.7	-35
CSc1nn2c(C(F)(F)F)cc(C(F)(F)F)nc2c1C(N)=O	6	17	9	4473	1	3.9	17
Cn1c2ccccc2c(=O)c2c(=O)n(Cc3ccco3)c(-c3ccc(C(C)(C)C)cc3)nc21	-13	9	-15	x	-5	-4.1	x
CN1CCc2c(sc(NC(=O)c3ccco3)c2C(N)=O)C1	-1	-5	3	4463	1	3.6	-17
Cn1nnc2cc(C(=O)NCc3ccco3)ccc21	x	x	7	4104	2	-0.2	-27
CC[n+]1c(/C=C(\C)SC)sc2ccccc21	9	8	14	4583	-11	0.6	-36
COc1cc([N+](=O)[O-])ccc1NC(=O)Nc1cnccn1	-8	10	-4	5480	-10	0.8	29
CC(C)COc1ccc(Cc2c(O)[nH]c(=S)[nH]c2=O)cc1	0	-3	5	3201	2	4.3	-13
COc1ccc(NC(=O)CSc2c3c(nc4ccccc24)CCCC3)c(OC)c1	6	4	-4	9163	4	2.6	-5
O=C(NN=Cc1coc2ccccc2c1=O)c1cc(Br)ccc1O	2	3	7	x	x	5.3	x
CCN(CC(=O)NCc1ccc(Cl)cc1)C(=O)CCOc1ccccc1C	2	-1	1	6244	-1	5.9	-1
CC(OC(=O)/C=C/c1ccccc1)C(=O)Nc1cccc(C#N)c1 (stereo not given)	13	-5	6	5478	-6	-0.3	-10
Cc1ccc(NC(=O)c2ccccc2F)nc1	-4	-7	-3	5350	14	-3.1	-21
NC(=O)N/N=C/c1ccc(-n2nncc2-c2ccc(Cl)cc2)cc1	x	x	x	5634	1	x	0
Cc1ccc(S(=O)(=O)N2CCN(S(C)(=O)=O)C2c2ccccc2)cc1 (stereo not given)	x	x	-2	5090	x	2.6	-23
COc1cc(OC)nc(Oc2ccccc2C(=O)Oc2ccccc2Cl)n1	9	-3	15	10838	-4	2.8	-23
Cc1cc(C)c(S(=O)(=O)C(C)C)c(=O)[nH]1	14	12	7	3974	1	4.6	-29
COc1ccc(-n2c(=O)c3ccccc3n(Cc3ccccc3F)c2=O)cc1OC	2	-9	10	3808	0	1.1	-2
CCCCNCC(=O)Nc1sc(C)c(C)c1C(=O)OCC	x	x	-2	6149	7	10	-14
O=C(CN1CCN(c2cccc(C(F)(F)F)c2)CC1)Nc1cccc(C(F)(F)F)c1	17	3	-21	2447	1	-5.0	-13
CCC1Oc2ccc(Cl)cc2N(CC(=O)O)C1=O (stereo not given)	3	3	4	9895	-1	1.7	-18
O=C(COc1ccccc1F)Nc1ccc2c(c1)CCC2	-2	-2	5	5242	x	7.5	-69
C/C(=N\NC(=O)CCc1ccc(S(=O)(=O)N2CCOCC2)cc1)c1ccc(Br)cc1	x	x	x	4231	-11	x	-8
Cc1cccc(NC(=O)c2cc([N+](=O)[O-])ccc2N2CCN(C)CC2)c1	-2	0	1	5162	-1	6.7	-19
O=C(Cc1cccs1)Nc1nnc(SCc2cccc3ccccc23)s1	2	-13	-2	10649	-12	1.9	1
O=C(NNC1=NC2(CCCC2)Cc2ccccc21)c1ccncc1	10	2	4	4440	-2	2.8	-15
COC(=O)c1cn(NC(=O)Cc2ccc(Cl)c(Cl)c2)c(=O)c2ccccc12	10	2	-7	2625	0	14	-5
Cc1cc(Cl)ccc1OCC(=O)NNC(=O)c1ccc(=O)[nH]c1	6	12	2	3658	x	3.9	-40
CCN(Cc1ccccc1)C(=O)C1CCC(CNc2c(N3CCOCC3)c(=O)c2=O)CC1 (stereo not given)	5	23	4	5928	0	-1.3	1
Cc1ccc(-c2csc(-c3c[nH]c4ccccc34)n2)c(C)c1	x	x	95*	2470	3	-7.1	-26
COc1cccc(C(=O)Oc2ccc3ccc(=O)oc3c2)c1	-5	3	-6	3744	-1	3.4	-6
